RVFV N-RNA inh – inhibitors of RVFV nucleoprotein–RNA binding, primary screen, biochemical, fluorescence polarization. RVFV N-RNA binding; stronger effect = lower value. % bound, % (concentration not given with the values). P21700. 20,000 compounds, 0.1% hits. AID 651828, 2012;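 active = between 0 and 58% in either replicate with normal brightness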;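 note: 100 nL library stock added to about 12 µL; 100% = protein and probe without compound and 0% = probe alone; numbers are from one replicate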
Target sequence (P21700 whole entry, looked up): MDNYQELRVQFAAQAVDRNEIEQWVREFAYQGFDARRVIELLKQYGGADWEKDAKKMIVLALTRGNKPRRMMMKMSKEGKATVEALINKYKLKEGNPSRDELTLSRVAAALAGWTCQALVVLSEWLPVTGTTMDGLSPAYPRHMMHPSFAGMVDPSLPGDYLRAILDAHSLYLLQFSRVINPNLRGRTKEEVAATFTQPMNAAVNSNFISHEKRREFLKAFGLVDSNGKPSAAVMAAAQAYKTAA
An asterisk follows results filed as active. Some of the compounds tested; the hit share may differ from the screen's.

SMILES: Cc1c(C#N)c2ncnc(-c3ccccc3)c2n1Cc1ccccc1
  RVFV N-RNA inh: 94
SMILES: N=C(N)c1ccc(OCCCCCOc2ccc(C(=N)N)cc2)cc1 (tested in a mixture with another compound)
  RVFV N-RNA inh: 94
SMILES: C=CCOc1cc(C)nc(-c2ccccc2O)n1
  RVFV N-RNA inh: 96
SMILES: OC1Cc2cccc3cccc1c23 (stereo not given)
  RVFV N-RNA inh: 91
SMILES: O=C(NNc1ccc(F)cc1)c1cc(Cl)nc(OCC(F)(F)F)c1
  RVFV N-RNA inh: 91
SMILES: CC(C)(C)c1ccc(-c2noc(CSc3n[nH]c(=O)n3C3CC3)n2)cc1
  RVFV N-RNA inh: 95
SMILES: COC(=O)CCn1ccnc1C
  RVFV N-RNA inh: 105
SMILES: Cc1cccc(C)c1NC(=O)c1ccccc1C(=O)O
  RVFV N-RNA inh: 102
SMILES: CCOc1ccc(-n2c(N)c(C(=O)N3CCN(C)CC3)sc2=S)cc1
  RVFV N-RNA inh: 92
SMILES: COC(=O)c1ccsc1NC(=O)/C=C\C(=O)O
  RVFV N-RNA inh: 93
SMILES: Cc1cc(OCC(=O)Nc2ccc(N3CCN(C(=O)c4ccco4)CC3)cc2)cc(C)c1Cl
  RVFV N-RNA inh: 104
SMILES: CC(C)(C)OC(=O)NC1CCN(S(=O)(=O)c2ccc(Cl)cc2)CC1
  RVFV N-RNA inh: 99
SMILES: O=C(O)CNC(=O)c1cc(C(F)(F)F)cc(C(F)(F)F)c1
  RVFV N-RNA inh: 95
SMILES: Clc1ccc2c(c1)c1nc3ccccc3nc1n2Cc1nc2ccccc2o1
  RVFV N-RNA inh: 100
SMILES: COc1ccc(-n2ncc3c(NCCC4=CCCCC4)ncnc32)cc1
  RVFV N-RNA inh: 94

Quoted at random: 5 records from the list.
SMILES: Cc1cc(OCC(=O)Nc2ccc(N3CCN(C(=O)c4ccco4)CC3)cc2)cc(C)c1Cl
  RVFV N-RNA inh: 104
SMILES: O=C(O)CNC(=O)c1cc(C(F)(F)F)cc(C(F)(F)F)c1
  RVFV N-RNA inh: 95
SMILES: Cc1cccc(C)c1NC(=O)c1ccccc1C(=O)O
  RVFV N-RNA inh: 102
SMILES: COC(=O)c1ccsc1NC(=O)/C=C\C(=O)O
  RVFV N-RNA inh: 93
SMILES: N=C(N)c1ccc(OCCCCCOc2ccc(C(=N)N)cc2)cc1 (tested in a mixture with another compound)
  RVFV N-RNA inh: 94

Another view of some results above.
| canonical_smiles | RVFV N-RNA inh |
| --- | --- |
| COC(=O)c1ccsc1NC(=O)/C=C\C(=O)O | 93 |
| C=CCOc1cc(C)nc(-c2ccccc2O)n1 | 96 |

(further entries)
SMILES: COc1cccc(C(=O)NCCc2cc3ccc(OC)cc3[nH]c2=O)c1
  RVFV N-RNA inh: 98
SMILES: COC(=O)c1cc(S(=O)(=O)Nc2nn(C)c3cccc(F)c23)oc1C
  RVFV N-RNA inh: 93
SMILES: CN(C)/C=C/C(=O)c1ccco1
  RVFV N-RNA inh: 95
SMILES: CN(Cc1ccccc1)S(=O)(=O)c1ccc(F)cc1
  RVFV N-RNA inh: 88
SMILES: COn1c(=O)c(-c2ccc(I)cc2)[n+]([O-])c2ccccc21
  RVFV N-RNA inh: 107
SMILES: CC(C)=NNC(=S)Nc1ccc(Cl)cc1
  RVFV N-RNA inh: 95
SMILES: Cc1cc(C)c(N(CC(O)Cn2cc(/C=N/O)c3ccccc32)S(C)(=O)=O)c(C)c1 (stereo not given)
  RVFV N-RNA inh: 88
SMILES: N#Cc1c[nH]c2ccc(N3C(=O)c4ccccc4C3=O)cc12
  RVFV N-RNA inh: 95
SMILES: NC(=O)COc1ccc2ccc(=O)oc2c1
  RVFV N-RNA inh: 92
